Screening results (PubChem)
motility = Vibrio cholerae motility inhibitors, OD read-out (AID 588778); Vibrio cholerae motility, OD read-out; higher % means a stronger effect; test concentration not given here; primary cut-off and reference of the scale not given here; strong numbers were not always called active; inhibition, %, or IC50 in µg/mL where a hit was titrated; 10,000 tested, under 10 active; in the data active means confirmed in a dose series
motility viability = further read-out of motility, marked with its call; inhibition, %; measured here: bacterial viability at 10 ug/mL;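 higher means fewer living bacteria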
* hit, by the source's call. Not all compounds are listed. The share of hits here may be higher or lower than overall.

A first look, 21 compounds:
SMILES	motility	motility viability
Cc1nc2ccc(C(=O)N3CCC(c4ccccc4)C3)cc2s1 (stereo unspecified)	23%	24
O=C(C1CCCO1)N1CCN(C(=S)Nc2ccc(S(=O)(=O)Nc3ncccn3)cc2)CC1 (stereo unspecified)	6%	1
Cc1nc(NC(=O)c2ccc(F)cc2)nc2cc3c(cc12)OCO3	9%	-4
O=C(Nc1ccc(N2CCN(c3ccc(O)cc3)CC2)cc1)Oc1ccccc1	12%	-1
N#CC1=C(N)N(c2ccc(Cl)cc2)C(=O)C1	-1%	17
COc1cc(/C=C(\C#N)C(N)=S)ccc1OCc1ccccc1Cl	6%	0
Cc1sc2ncnc(SCC(=O)Nc3sc4c(c3C#N)CCCC4)c2c1-c1ccccc1	-1%	-6
Clc1ccccc1-c1nc2ccccc2n1CCOc1ccccc1	-5%	-5
COCC(C)NCc1cc(Br)c(OC)cc1OC (stereo unspecified)	11%	0
Cc1ccc(NS(C)(=O)=O)cc1Cl	9%	30
O=C(O)CC(C(=O)Nc1ccc(Cl)cc1)N1CCCC1 (stereo unspecified)	3%	1
COc1ccccc1OCC#CCCOn1nnc2ccccc21	14%	0
O=C(CCN1CCc2ccccc2C1)Nc1ccc2c(c1)OCO2	3%	1
CC(C)=CCC12CN3CCN(CC(C3)C1O)C2 (stereo unspecified)	5%	-1
O=C(CC(=O)c1ccccc1)Nc1cccc(S(=O)(=O)Nc2ccccc2)c1	11%	-5
CCOC(=O)c1ccc(NC(=S)N2CCN(S(C)(=O)=O)CC2)cc1	-5%	-8
CS(=O)(=O)N1CCN(C(=O)C2c3ccccc3Oc3ccccc32)CC1	15%	2
CC(C)NC(=O)c1ccccc1NC(=O)C(Cl)Cl	-23%	-6
CC(=O)Nc1nonc1C(=O)N1CCC(C)CC1	7%	4
O=C(c1ccccc1)c1cc(Cl)ccc1NC(=O)c1cccc(Cl)c1Cl	-15%	-9
CC1(C)C(=O)C2(C(=O)Nc3cccc(C(F)(F)F)c3)CCC1C2 (stereo unspecified)	4%	0

Main list, from the start:
SMILES	motility	motility viability
Cc1nc2ccc(C(=O)N3CCC(c4ccccc4)C3)cc2s1 (stereo unspecified)	23%	24
O=C(C1CCCO1)N1CCN(C(=S)Nc2ccc(S(=O)(=O)Nc3ncccn3)cc2)CC1 (stereo unspecified)	6%	1
Cc1nc(NC(=O)c2ccc(F)cc2)nc2cc3c(cc12)OCO3	9%	-4
O=C(Nc1ccc(N2CCN(c3ccc(O)cc3)CC2)cc1)Oc1ccccc1	12%	-1
N#CC1=C(N)N(c2ccc(Cl)cc2)C(=O)C1	-1%	17
COc1cc(/C=C(\C#N)C(N)=S)ccc1OCc1ccccc1Cl	6%	0
Cc1sc2ncnc(SCC(=O)Nc3sc4c(c3C#N)CCCC4)c2c1-c1ccccc1	-1%	-6
Clc1ccccc1-c1nc2ccccc2n1CCOc1ccccc1	-5%	-5
COCC(C)NCc1cc(Br)c(OC)cc1OC (stereo unspecified)	11%	0
Cc1ccc(NS(C)(=O)=O)cc1Cl	9%	30
O=C(O)CC(C(=O)Nc1ccc(Cl)cc1)N1CCCC1 (stereo unspecified)	3%	1
COc1ccccc1OCC#CCCOn1nnc2ccccc21	14%	0
O=C(CCN1CCc2ccccc2C1)Nc1ccc2c(c1)OCO2	3%	1
CC(C)=CCC12CN3CCN(CC(C3)C1O)C2 (stereo unspecified)	5%	-1
O=C(CC(=O)c1ccccc1)Nc1cccc(S(=O)(=O)Nc2ccccc2)c1	11%	-5
CCOC(=O)c1ccc(NC(=S)N2CCN(S(C)(=O)=O)CC2)cc1	-5%	-8
CS(=O)(=O)N1CCN(C(=O)C2c3ccccc3Oc3ccccc32)CC1	15%	2
CC(C)NC(=O)c1ccccc1NC(=O)C(Cl)Cl	-23%	-6
CC(=O)Nc1nonc1C(=O)N1CCC(C)CC1	7%	4
O=C(c1ccccc1)c1cc(Cl)ccc1NC(=O)c1cccc(Cl)c1Cl	-15%	-9
CC1(C)C(=O)C2(C(=O)Nc3cccc(C(F)(F)F)c3)CCC1C2 (stereo unspecified)	4%	0
CCN(CC)CC(O)Cn1c(C)c(-c2ccccc2)c2cc([N+](=O)[O-])ccc21 (stereo unspecified)	83%	34
Cc1nc2nc[nH]n2c(=O)c1NC(=O)CC12CC3CC(CC(C3)C1)C2	5%	3
Cc1nn(Cc2ccccc2)c(C)c1/C=C/c1onc(C)c1[N+](=O)[O-]	-11%	-7
O=C(NC(=S)NCC1COc2ccccc2O1)c1ccccc1 (stereo unspecified)	-2%	-2
O=C(Nc1ccc2c3c(cccc13)CC2)c1ccc2c(c1)OCCO2	3%	1
CC1CCN(c2ccc(C(N)=O)cc2N)CC1	-1%	3
Cn1nnnc1SCC(=O)Nc1ccc([N+](=O)[O-])cc1	-13%	-3
CC(Oc1ccccc1)C(=O)Nc1ccc(F)c(F)c1 (stereo unspecified)	8%	-2
O=S(=O)(O)c1cccc2cccc(Cl)c12	16%	3
CC(C)C(NC(=O)OCc1ccccc1)C(=O)NCC(=O)OC(C)(C)C (stereo unspecified)	-11%	-5
Cn1c(SCc2ccccc2Br)nnc1-c1cc(Cl)ccc1O	-14%	-1
CN(c1ccc(OCC(=O)O)cc1)S(=O)(=O)c1ccc(F)cc1	1%	1
CN(C)CC[n+]1cccc(C(N)=O)c1	-2%	-4
CC(C)(CO)NCc1ccc(-c2ccccc2)o1	28%	7
N#CC1=C(SCC(=O)Nc2cccc3cccnc23)NC(=O)C(C#N)C12CCCCC2 (stereo unspecified)	0%	-2
Cc1cc(=O)oc2cc(Oc3nnnn3-c3ccccc3)ccc12	-43%	-4
COc1ccc2cc3c(nc2c1)OCC3	14%	-1
O=c1c2c(-c3ccc(Cl)cc3)csc2[nH]c(=S)n1Cc1ccccc1	23%	2
CCOC(=O)c1ccc(NC(=S)NCCCN2CCN(c3ccc(OC)cc3)CC2)cc1	12%	6
Cc1ccc(-c2nn3c(=O)c4c(-c5cccs5)csc4nc3c3ccccc23)cc1	-7%	-5
Cc1cc(C)nc(NC(=NCc2ccc(Cl)cc2)NC(=O)C(C)N2C(=O)c3ccccc3C2=O)n1 (stereo unspecified)	7%	-3
COc1cc(OC)c(OC)cc1CNCCc1ccccc1F	17%	-1
C/C=C/c1ccc(OCCn2cnc3ccccc3c2=O)c(OC)c1	15%	0
COc1cccc(C(=O)Nc2cccc(N=C(N)CCCC(=O)O)c2)c1	-4%	-6
CCN(C1CCS(=O)(=O)C1)S(=O)(=O)c1cccs1 (stereo unspecified)	2%	-1
CCOC(=O)N1CCN(CC(O)COc2ccc(Cl)c(C)c2)CC1 (stereo unspecified)	4%	-5
COc1ccc(/C(C)=N/N=C(\N)SC2CC(=O)N(c3ccc(C(=O)O)cc3)C2=O)cc1 (stereo unspecified)	2%	-4
O=C1CCC(=O)N1OCCCSc1ccc(Cl)cc1	16%	9
CC(C)NC(=O)CCSc1ccccc1	1%	1
The results go on.
SMILES	motility	motility viability
Cc1noc(C)c1C(=O)NCc1cccs1	-5%	-3
COc1ccc(C(O)C(Nc2ccc(C)cc2)c2nc3ccccc3n2C)cc1 (stereo unspecified)	5%	-1
CC(=O)CCc1c(C)c2ccccc2[nH]c1=O	-8%	-5
COC(=O)c1cc(Nc2ncnc3c2cnn3-c2ccccc2)cc(C(=O)OC)c1	4%	22
Cc1ccc(C(=O)NCc2ccc(Cl)cc2)cc1C	-62%	-20
O=C(Nc1c(F)cc(F)cc1Br)c1cc(-c2ccccc2)on1	13%	-13
CC(C(=O)O)(c1ccccc1)c1ccccc1	7%	1
COc1cccc(C=O)c1OC(=O)c1ccccc1F	5%	-4
COc1cccc(CNc2cnc3ccccc3c2)c1O	9%	1
O=C(O)Cc1nnnn1-c1ccccc1	-13%	-8
COc1ccc(-c2csc(NC(=O)Cn3nc(C)cc3C)n2)cc1	0%	-6
CCCCN1C(=O)c2ccc(C(=O)NC3=NCCS3)cc2C1=O	-9%	-1
COC(=O)C1C(=O)CC(C)(O)C(C(=O)OC)C1/C=C/c1ccccc1 (stereo unspecified)	-40%	43
O=C(Nc1c(F)cc(F)cc1Br)c1cnn2cccnc12	-5%	-6
O=C(NC1CC1)c1ccc(Br)cc1	12%	-4
O=C(Nc1ccc(I)cc1)C1CCN(C(=O)Cc2ccccc2)CC1	15%	6
CC1=C(C(=O)Nc2ccccc2C)C2(CCCCC2)C(C(N)=O)C(=S)N1 (stereo unspecified)	5%	-5
O=C(N/N=C/c1ccccc1O)c1cccc(C(=O)N/N=C/c2ccccc2O)n1	18%	22
CC1SC(=NC(=O)c2ccncc2)NC1=O (stereo unspecified)	9%	1
CC1CCN(S(=O)(=O)c2ccc(NC(=O)Cn3cnc4c3c(=O)n(C)c(=O)n4C)cc2)CC1	-12%	-9
CC(NS(=O)(=O)c1ccc([N+](=O)[O-])cc1)C12CC3CC(CC(C3)C1)C2 (stereo unspecified)	11%	0
COc1ccc(CCn2c(-c3ccco3)nc3ccccc3c2=O)cc1OC	-7%	-7
O=C(COc1ccc(-c2ccccc2)cc1)N1CCN(S(=O)(=O)c2ccccc2[N+](=O)[O-])CC1	-31%	-15
CCc1sc(C(=O)Nc2ccc(S(=O)(=O)NC)cc2)cc1Br	6%	2
CC1CN(S(=O)(=O)c2cccs2)CC(C)O1 (stereo unspecified)	-1%	-2
CCCCC(=O)NCc1cccc(CNC(=O)CCCC)c1	4%	0
O=c1[nH]c(=O)c2cnc3sc4c(c3c2[nH]1)CCCCC4	2%	-2
CC(Sc1ccccc1)C(=O)Nc1cccc(N(C)S(C)(=O)=O)c1 (stereo unspecified)	-5%	1
CCCCC(=O)Nc1ccc(I)c(C)n1	4%	4
C=CCN1C(=O)C2(C(C#N)=C(N)Oc3ccccc32)C(C(C)=O)=C1C (stereo unspecified)	-11%	-4
Cc1ccc2nc(/C(C#N)=C\C3CC4C=CC3C4)[nH]c2c1 (stereo unspecified)	6%	2
CCOc1ccc(CNc2ccc(CNc3ncn[nH]3)cc2)cc1	-2%	4
O=C(NC(=S)NC12CC3CC(CC(C3)C1)C2)c1sc2ccccc2c1Cl	-6%	-3
OC(c1ccccc1)(c1ccccc1)C1CCN(C(=S)NCc2ccco2)CC1	-8%	-2
CN1CCN(c2cc3[nH]c(=S)[nH]c3cc2F)CC1	8%	1
CCOC(=O)c1c(N)c(C#N)cn1-c1ccccc1	-6%	7
Cc1cc(C)n(C(=O)c2ccc(S(=O)(=O)NCC3CCCO3)cc2)n1 (stereo unspecified)	-3%	16
O=C(CSc1nnc2scc(-c3ccccc3)n12)Nc1nc(=O)c2ccccc2s1	0%	30
CC(=O)c1ccc(Nc2cc(C)nc3ncnn23)cc1	-7%	-4
O=C(Cc1ccccc1Cl)Nc1nncs1	1%	4
CCn1nc(C)c(NC(=O)CSc2nnc(-c3ccco3)n2C)c1C	0%	0
O=C(O)CNS(=O)(=O)c1ccc(-c2ccccc2)cc1	-6%	-5
O=C(NNC(=S)NCc1ccco1)C(Sc1ccccc1)c1ccccc1 (stereo unspecified)	-4%	-8
CCOC(=O)N1CCN(C(=O)c2nc3ccccc3s2)CC1	11%	-1
Clc1ccccc1COc1ccc(-c2cnc3ccccc3n2)cc1	-9%	-10
COc1cc(SC)ccc1C(=O)Nc1ccon1	16%	-1
CCSCC(=O)Nc1ccccc1F	7%	4
Cc1nn(Cc2ccc(Cl)cc2)c(C)c1NC(=O)C(c1ccccc1)c1ccccc1	-11%	-5
Cc1ccc(CC23CN4CCN(CC(C4)C2=O)C3)c(C)c1	-9%	-1
O=C(N1CCN(Cc2ccccc2)CC1)C(Cl)(Cl)Cl	47%	45
Next section:
SMILES	motility	motility viability
CCC1(C)CC(CCN2C(=O)c3ccccc3C2=O)(c2ccc(C)cc2)CCO1 (stereo unspecified)	6%	0
Cc1ccc2cccc(S(=O)(=O)n3nc(C)cc3C)c2n1	-4%	-2
CCCc1cc(=O)[nH]c(/N=C(/NC(=O)C(C)N2C(=O)c3ccccc3C2=O)Nc2ccccc2)n1 (stereo unspecified)	9%	-1
CCCCOc1ccc(C(=O)NC(=S)N2CCN(c3c(F)c(F)c(F)c(F)c3F)CC2)cc1	5%	-4
CC(C)C(=O)NCCN1CCOCC1	-4%	0
CCc1cc(CC)c(/C=C(\C#N)C(N)=O)c(CC)c1	-63%	-20
O=c1[nH]c2ccc(Cl)cc2c(-c2ccccc2)c1NS(=O)(=O)c1ccccc1	-18%	-5
Cc1cccnc1NC(=S)NCCc1ccccc1	28%	6
C=CCSc1nc2cc(OC)ccc2n1Cc1ccccc1	16%	2
O=C(COc1cccc(Cl)c1)Nc1ccc(C(=O)OC2CCCCC2)cc1	-14%	-4
O=C(Nc1ccccc1C(F)(F)F)N1CCc2ccccc2C1	53%	21
COc1ccc(NCc2c(F)cccc2Cl)cc1Cl	3%	-3
CCn1c(SCC(=O)c2ccc(NS(=O)(=O)c3ccccc3)cc2)nnc1-c1cccs1	-22%	-7
CCOC(=O)NC(C(=O)OCC)(c1ccccc1)C(F)(F)F (stereo unspecified)	-6%	-1
COC(=O)c1cccc(NC(=S)NCCC2=CCCCC2)c1	36%	3
Cc1nn2c(-c3cccc(NC(=O)CN4CCCCC4)c3)nnc2c2ccccc12	2%	-1
Cc1ccc(Nc2nc(C)cc(C)n2)c(C(=O)O)c1	2%	3
CCOc1ccc(S(=O)(=O)Nc2ccc(Cl)cc2)c2ccccc12	24%	-6
O=C(CCNc1ccc2c(c1)oc1ccccc12)c1ccc([N+](=O)[O-])cc1	-10%	-4
CCOC(=O)C1CCN(C(=S)Nc2ccc3nccnc3c2)CC1	5%	4
Cc1c(Cl)c(=O)oc2cc(OCc3ccc(F)cc3)c(Cl)cc12	3%	-4
S=C(NCC1CCCO1)Nc1cc(-c2ccccc2)[nH]n1 (stereo unspecified)	27%	17
COc1cc(C=O)ccc1OCCCCOc1ccc(Cl)c(C)c1C	-6%	-5
NS(=O)(=O)c1ccc(Nc2nc(-c3ccc(O)c(O)c3)cs2)cc1	13%	2
C=CCn1c2nc3ccccc3nc2c2cccc(C)c21	-8%	7
Cc1cccc(CC(CC(=O)O)C(=O)O)c1 (stereo unspecified)	9%	-13
COc1ccc(Br)cc1CON1C(=O)c2ccccc2C1=O	18%	1
COC(=O)C1=C(C)NC(=O)C1(Nc1nccs1)C(F)(F)F (stereo unspecified)	1%	3
Cc1ccc(OC(=O)C(CCS(C)(=O)=O)N2C(=O)c3cc(Cl)c(Cl)cc3C2=O)c(-n2nc3ccccc3n2)c1 (stereo unspecified)	18%	3
